# HIV Env fusion – blocks HIV Env-driven cell-cell fusion | HeLa-JRFL Env/CEM21 cell fusion, luciferase | inhibition, % at 12.3 µM | 360,000 tested, 1.1% active | AID 651610;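 active means mean replicate inhibition score of at least 50 and every replicate individually at or above 50; inconclusive means only one of the two criteria met; inactive means mean below 50 and not all replicates reaching 50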;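 further: 0% = plate neutral controls and 100% = maraviroc near 300 nM; one replicate is shown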
# UUG fidelity – alters start codon recognition fidelity in yeast; activity score, % at 18.7 µM; S. cerevisiae UUG-firefly luciferase reporter, luminescence/redox ratio; AID 602363; 350,000 tested, 0.13% active;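 active means replicate mean at a twofold rise or more, about +100% in these data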;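 further: firefly luciferase made from a UUG start codon reports start codon fidelity; reporter light over untreated wells divided by growth signal over untreated wells; some hits fall short of that in this replicate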
# Starred values were filed as active, the others as inactive; ? = inconclusive; [ ] = another dose, or the depositor's remark. This is a subset, so the mix of outcomes need not match the whole.
SMILES,HIV Env fusion,UUG fidelity
Cc1noc(C)c1S(=O)(=O)Nc1ccc2c(c1)C(=O)N([C@@H](C)CO)C[C@H](C)[C@@H](CN(C)C(=O)Nc1ccccc1)OCCCC[C@@H](C)O2,-88[16.7 µM],6
CNC(=O)C[C@@H]1CC[C@H]2[C@@H](COc3ccc(NC(=O)c4ccc5c(c4)OCO5)cc3C(=O)N2C)O1,8[16.7 µM],9
C[C@H]1CN([C@@H](C)CO)C(=O)Cc2cc(NC(=O)CCCCCC(=O)Nc3ccccc3N)ccc2O[C@H]1CN(C)S(=O)(=O)c1ccccc1,4[16.7 µM],3
CNC[C@H]1Oc2cc(Br)ccc2S(=O)(=O)N([C@H](C)CO)C[C@@H]1C,-5[16.7 µM],-6
C[C@H](CO)N1C[C@H](C)[C@@H](CN(C)Cc2ccc(C(F)(F)F)cc2)OCCCC[C@H](C)Oc2ccc(NC(=O)CCC(F)(F)F)cc2C1=O,-9[16.7 µM],11
COc1cccc(-c2ccc3c(c2)O[C@H](CN(C)Cc2ccncc2)[C@@H](C)CN([C@@H](C)CO)S3(=O)=O)c1,-2[16.7 µM],1
O=C(CN1CCOCC1)NCC[C@H]1CC[C@@H](NS(=O)(=O)c2ccc(Cl)cc2)[C@H](CO)O1,10[16.7 µM],-9
C[C@H]1CCCCO[C@H](CN(C)Cc2ccc(Cl)c(Cl)c2)[C@@H](C)CN([C@@H](C)CO)C(=O)c2cc(NC(=O)Cc3ccccc3)ccc2O1,13[16.7 µM],-12
CN1C(=O)c2cc(NC(=O)c3cccc(F)c3)ccc2OC[C@H]2O[C@H](CC(=O)NCc3ccccc3)CC[C@H]21,?,19
C[C@@H]1CN([C@H](C)CO)C(=O)c2cc(-c3ccc(C#N)cc3)cnc2O[C@@H]1CN(C)CC1CCOCC1,3[16.7 µM],-3
C[C@H](CO)N1C[C@H](C)[C@@H](CN(C)CC2CC2)Oc2ccc(NC(=O)Nc3cccc4ccccc34)cc2CC1=O,5[16.7 µM],2
C[C@H](CO)N1C[C@H](C)[C@H](CN(C)CC2CC2)Oc2ccc(NS(=O)(=O)c3cn(C)cn3)cc2C1=O,16[16.7 µM],-15
CN(C)CC(=O)Nc1ccc2c(c1)[C@@H]1C[C@@H](CC(=O)N3CCOCC3)O[C@H](CO)[C@@H]1O2,30[16.7 µM],-10
C[C@@H]1CCCCO[C@@H](CN(C)S(=O)(=O)c2cccs2)[C@H](C)CN([C@@H](C)CO)C(=O)c2cc(NS(=O)(=O)c3ccccc3)ccc2O1,34[16.7 µM],21
O=C(C[C@@H]1CC[C@H]2[C@@H](COC[C@@H](O)CN2CCC(F)(F)F)O1)N1CCC(Cc2ccccc2)CC1,25[16.7 µM],8
O=C(C[C@H]1C=C[C@@H](NC(=O)C2CCOCC2)[C@H](CO)O1)Nc1ccc(-c2ccccc2)cc1,8[16.7 µM],-17
CCCN1C[C@@H](C)[C@H](OC)CN(C)C(=O)c2cc(NC(=O)c3ccccc3F)ccc2OC[C@@H]1C,16[16.7 µM],-6
C[C@@H]1CN([C@H](C)CO)C(=O)Cc2cc(NS(=O)(=O)c3ccc(Cl)cc3)ccc2O[C@@H]1CN(C)Cc1ccc(Cl)c(Cl)c1,2[16.7 µM],-6
COc1ccc(-c2ccc3c(c2)O[C@H](CN(C)C(=O)c2ccccc2F)[C@@H](C)CN([C@@H](C)CO)S3(=O)=O)cc1,15[16.7 µM],16
Cc1ccc(S(=O)(=O)Nc2ccc3c(c2)CC(=O)N([C@@H](C)CO)C[C@@H](C)[C@@H](CN(C)C(=O)Nc2ccc4c(c2)OCO4)O3)cc1,-51[16.7 µM],6
C[C@H](CO)N1C[C@H](C)[C@@H](CN(C)S(=O)(=O)c2ccccc2)Oc2ccc(NS(=O)(=O)c3ccc(Cl)cc3)cc2CC1=O,-12[16.7 µM],12
O=C(C[C@@H]1C[C@H]2c3cc(NC(=O)C4CCC4)ccc3O[C@H]2[C@@H](CO)O1)NCc1ccccc1,-23[16.7 µM],2
C/C=C/c1ccc2c(c1)O[C@H](CN(C)C(=O)C1CC1)[C@H](C)CN([C@H](C)CO)S2(=O)=O,11[16.7 µM],-9
COC(=O)C[C@@H]1CC[C@@H](NC(=O)Nc2ccc(C(F)(F)F)cc2)[C@@H](CO)O1,8[16.7 µM],-13
CC(C)NC(=O)N(C)C[C@@H]1Oc2c(NC(=O)Nc3ccc4c(c3)OCO4)cccc2C(=O)N([C@@H](C)CO)C[C@@H]1C,-2[16.7 µM],5
C[C@@H]1CN([C@@H](C)CO)C(=O)c2cc(C#Cc3ccncc3)cnc2O[C@@H]1CN(C)CC1CCOCC1,-20[16.7 µM],16
C[C@@H]1CN([C@H](C)CO)C(=O)Cc2cc(NC(=O)C3CC3)ccc2O[C@H]1CN(C)Cc1ccc(C(F)(F)F)cc1,29[16.7 µM],1
COc1cccc(NC(=O)C[C@@H]2CC[C@@H]3[C@@H](COc4ccc(NS(=O)(=O)c5cccc(F)c5)cc4C(=O)N3C)O2)c1,-25[16.7 µM],0
COc1cccc(NC(=O)N[C@@H]2CC[C@@H](CC(=O)N3CCN(C)CC3)O[C@@H]2CO)c1,-17[16.7 µM],-4
CC(=O)N[C@H]1CC[C@H](CCNC(=O)C2CCCC2)O[C@@H]1CO,-14[16.7 µM],-11
CC(C)CC#Cc1cnc2c(c1)C(=O)N([C@H](C)CO)C[C@@H](C)[C@H](CN(C)Cc1cncnc1)O2,7[16.7 µM],-1
COc1ccc(S(=O)(=O)N(C)C[C@H]2OCCCC[C@@H](C)Oc3ccc(N(C)C)cc3C(=O)N([C@H](C)CO)C[C@H]2C)cc1,3[16.7 µM],68
C[C@@H](NC(=O)C[C@H]1C=C[C@H](NC(=O)C2CCOCC2)[C@H](CO)O1)c1ccccc1,-30[16.7 µM],-18
C[C@@H]1CCCCO[C@H](CN(C)C(=O)CCCN(C)C)[C@@H](C)CN([C@@H](C)CO)C(=O)c2cc(NC(=O)CCCN(C)C)ccc2O1,16[16.7 µM],30
C[C@@H]1CN([C@@H](C)CO)S(=O)(=O)c2ccc(C#C[C@@H](C)O)cc2O[C@H]1CN(C)C(=O)c1ccccc1,-19[16.7 µM],41
Cc1noc(C)c1S(=O)(=O)Nc1ccc2c(c1)C(=O)N([C@H](C)CO)C[C@@H](C)[C@@H](CN(C)S(=O)(=O)c1ccc(Cl)cc1)OCCCC[C@@H](C)O2,-9[16.7 µM],1
C[C@H](CO)N1C[C@H](C)[C@@H](CN(C)Cc2ccc(Oc3ccccc3)cc2)Oc2ccc(NS(=O)(=O)c3ccccc3)cc2C1=O,50[16.7 µM],-2
O=C(C[C@H]1C[C@H]2c3cc(NS(=O)(=O)c4ccc(F)cc4)ccc3O[C@H]2[C@@H](CO)O1)NCc1ccc(Cl)cc1,31[16.7 µM],-12
COc1ccc(C#Cc2cnc3c(c2)C(=O)N([C@H](C)CO)C[C@H](C)[C@H](CN(C)C(=O)Nc2cccc(OC)c2)O3)cc1,4[16.7 µM],0
COc1ccc(-c2cn(C[C@@H](Cc3ccccc3)NC(=O)Nc3ccccc3)nn2)cc1OC,-3[16.7 µM],19

# The final two compounds of the part above lead into the next:
SMILES,HIV Env fusion,UUG fidelity
COc1ccc(C#Cc2cnc3c(c2)C(=O)N([C@H](C)CO)C[C@H](C)[C@H](CN(C)C(=O)Nc2cccc(OC)c2)O3)cc1,4[16.7 µM],0
COc1ccc(-c2cn(C[C@@H](Cc3ccccc3)NC(=O)Nc3ccccc3)nn2)cc1OC,-3[16.7 µM],19
C[C@H](CO)N1C[C@H](C)[C@H](CN(C)CC2CC2)Oc2ncc(-c3cccc(C(=O)N(C)C)c3)cc2C1=O,11[16.7 µM],16
O=C(C[C@@H]1C[C@@H]2c3cc(NS(=O)(=O)c4ccc(F)cc4)ccc3O[C@@H]2[C@H](CO)O1)NCC(F)(F)F,38[16.7 µM],-10
COc1ccc(NC(=O)Nc2ccc3c(c2)CC(=O)N([C@H](C)CO)C[C@@H](C)[C@H](CN(C)C(=O)NC(C)C)O3)cc1,6[16.7 µM],2
C[C@@H]1CN([C@@H](C)CO)C(=O)c2cc(NC(=O)CCC(F)(F)F)ccc2O[C@H]1CN(C)CC1CCCCC1,-7[16.7 µM],-3
C[C@@H]1CN([C@H](C)CO)C(=O)Cc2cc(NC(=O)NC3CCCCC3)ccc2O[C@H]1CN(C)C(=O)NC1CCCCC1,-11[16.7 µM],1
C[C@@H]1CN([C@@H](C)CO)C(=O)c2cc(C#CC3CCCC3)cnc2O[C@H]1CN(C)C(=O)C1CCC1,14[16.7 µM],11
C[C@@H]1CN([C@H](C)CO)C(=O)Cc2cc(NC(=O)Cc3ccccc3)ccc2O[C@H]1CN(C)CC1CC1,4[16.7 µM],-3
CC(C)NC(=O)Nc1ccc2c(c1)C(=O)N([C@@H](C)CO)C[C@@H](C)[C@H](CN(C)C(=O)C1CCCCC1)OCCCC[C@H](C)O2,-12[16.7 µM],16
O=C(CCN1CCCCC1)NCC[C@@H]1CC[C@@H](NC(=O)Cc2cccnc2)[C@@H](CO)O1,13[16.7 µM],4
C[C@H](CO)N1C[C@H](C)[C@@H](CN(C)C(=O)Nc2cccc(F)c2)Oc2ncc(C#CCN(C)C)cc2C1=O,-4[16.7 µM],26
CC(C)NC(=O)N(C)C[C@@H]1Oc2ncc(C#Cc3ccccc3)cc2C(=O)N([C@H](C)CO)C[C@@H]1C,6[16.7 µM],5
C[C@@H]1CN([C@@H](C)CO)C(=O)c2cc(NS(=O)(=O)c3cccs3)ccc2O[C@@H]1CN(C)C(=O)Nc1ccc(F)cc1,-5[16.7 µM],-1
COc1ccc(NC(=O)Nc2ccc3c(c2)CC(=O)N([C@H](C)CO)C[C@@H](C)[C@H](CN(C)S(=O)(=O)c2cn(C)cn2)O3)cc1,-6[16.7 µM],-3
C[C@@H]1CN([C@H](C)CO)C(=O)Cc2cc(NS(=O)(=O)c3ccc(F)cc3)ccc2O[C@@H]1CN(C)S(=O)(=O)c1cccs1,17[16.7 µM],5
Cc1noc(C)c1NC(=O)N(C)C[C@H]1Oc2ccc(NS(=O)(=O)c3ccccc3)cc2C(=O)N([C@@H](C)CO)C[C@@H]1C,-19[16.7 µM],-17
C[C@H](CO)N1C[C@H](C)[C@H](CN(C)Cc2ccccc2)Oc2ccc(NC(=O)NC3CCCCC3)cc2C1=O,-6[16.7 µM],1
C[C@H](CO)N1C[C@H](C)[C@@H](CN(C)C(=O)Nc2cccc3ccccc23)Oc2c(NS(=O)(=O)c3ccc(Cl)cc3)cccc2C1=O,-42[16.7 µM],-13
C[C@H]1CCCCO[C@@H](CN(C)C(=O)Nc2ccc(C(F)(F)F)cc2)[C@@H](C)CN([C@@H](C)CO)C(=O)c2cc(NC(=O)c3ccccc3)ccc2O1,10[16.7 µM],-20
C[C@@H]1CCCCO[C@@H](CN(C)Cc2ccc(Cl)c(Cl)c2)[C@@H](C)CN([C@H](C)CO)C(=O)c2cc(NC(=O)C3CCCCC3)ccc2O1,2[16.7 µM],0
Cc1noc(C)c1NC(=O)Nc1cccc2c1O[C@@H](CN(C)S(C)(=O)=O)[C@@H](C)CN([C@H](C)CO)C2=O,2[16.7 µM],2

# Entries of single compounds, quoted from the list:
# Shown for COc1ccc(NC(=O)Nc2ccc3c(c2)CC(=O)N([C@H](C)CO)C[C@@H](C)[C@H](CN(C)C(=O)NC(C)C)O3)cc1 = HIV Env fusion: 6[16.7 µM]; UUG fidelity: 2
# Shown for C[C@@H]1CN([C@H](C)CO)C(=O)Cc2cc(NC(=O)C3CC3)ccc2O[C@H]1CN(C)Cc1ccc(C(F)(F)F)cc1 = HIV Env fusion: 29[16.7 µM]; UUG fidelity: 1
# Shown for C[C@H](CO)N1C[C@H](C)[C@@H](CN(C)C(=O)Nc2cccc3ccccc23)Oc2c(NS(=O)(=O)c3ccc(Cl)cc3)cccc2C1=O = HIV Env fusion: -42[16.7 µM]; UUG fidelity: -13

# (listing goes on)
SMILES,HIV Env fusion,UUG fidelity
C[C@@H]1CN([C@@H](C)CO)C(=O)c2cc(NC(=O)Nc3ccc(C(F)(F)F)cc3)ccc2O[C@@H]1CN(C)CC1CC1,12[16.7 µM],4
COCc1cn(CC[C@H]2CC[C@H](NC(=O)Nc3ccc4c(c3)OCO4)[C@@H](CO)O2)nn1,-23[16.7 µM],-14
C[C@@H]1CN([C@@H](C)CO)C(=O)c2cc(C#Cc3ccncc3)cnc2O[C@H]1CN(C)Cc1ccncc1,7[16.7 µM],5
COc1ccccc1-c1cnc2c(c1)C(=O)N([C@H](C)CO)C[C@H](C)[C@H](CN(C)C(C)=O)O2,0[16.7 µM],-3
O=C(Nc1ccc(Cl)c(Cl)c1)N[C@@H]1CC[C@@H](CCn2cc(C3CC3)nn2)O[C@H]1CO,-4[16.7 µM],8
C[C@H](CO)N1C[C@H](C)[C@@H](CN(C)S(=O)(=O)c2ccc(F)cc2)OCCCC[C@H](C)Oc2ccc(NC(=O)c3ccncc3)cc2C1=O,-10[16.7 µM],2
CCS(=O)(=O)N1[C@H](CO)[C@H](c2ccc(C3=CCCCC3)cc2)[C@@H]1C#N,9[16.7 µM],7
C[C@@H]1CN([C@H](C)CO)S(=O)(=O)c2ccc(-c3ccccc3)cc2O[C@H]1CN(C)Cc1cccc(F)c1,34[16.7 µM],7
O=C(Cc1ccncc1)NCC[C@H]1CC[C@H](NC(=O)C2CCOCC2)[C@H](CO)O1,-8[16.7 µM],3
Cc1ccc(S(=O)(=O)Nc2cccc3c2O[C@H](CN(C)C(=O)NC2CCCCC2)[C@@H](C)CN([C@@H](C)CO)C3=O)cc1,-4[16.7 µM],-3

# Bioassay records from PubChem BioAssay.
